From PubChem
TRPML1 inh – human mucolipin-1 channel inhibition | Q9GZU1 | TRPML1-inducible cells, Ca2+ dye fluorescence, FDSS; hits give low values; inhibition of EC80 agonist-evoked calcium signal | activity change, negative = inhibition, % (no concentration beside the values) | actives 0.02% (n = 390,000); in the data active means activity change below about -50%; inconclusive means about -30% to -50%; inactive means above about -30%;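 also: stimulus is agonist 54-4 at its EC80 concentration; % is scaled to controls: 0 for no effect and ±100 for the full control effect; compound concentration not given in the record; the text of the record puts the active cut at -80%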
Target sequence (Q9GZU1 whole entry, looked up): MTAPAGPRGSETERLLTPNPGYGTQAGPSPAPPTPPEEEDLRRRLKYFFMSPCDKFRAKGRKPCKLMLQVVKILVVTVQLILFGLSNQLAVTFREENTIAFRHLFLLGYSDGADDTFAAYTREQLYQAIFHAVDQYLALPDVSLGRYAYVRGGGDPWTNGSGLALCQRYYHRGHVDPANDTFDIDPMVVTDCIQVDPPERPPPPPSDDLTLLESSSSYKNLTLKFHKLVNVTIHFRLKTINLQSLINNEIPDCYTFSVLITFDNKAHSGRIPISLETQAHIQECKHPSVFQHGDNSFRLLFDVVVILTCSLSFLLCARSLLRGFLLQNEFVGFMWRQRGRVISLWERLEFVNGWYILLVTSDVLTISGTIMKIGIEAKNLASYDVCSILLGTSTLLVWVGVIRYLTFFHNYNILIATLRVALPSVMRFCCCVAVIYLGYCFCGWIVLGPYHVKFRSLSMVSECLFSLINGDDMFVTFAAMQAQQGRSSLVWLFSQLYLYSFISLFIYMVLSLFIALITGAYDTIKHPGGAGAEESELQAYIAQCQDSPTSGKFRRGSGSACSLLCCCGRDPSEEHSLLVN
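Calcium fluorescence in TRPML1-DL cells induced overnight with Tet: a 110 s read after compound pin addition, then a 110 s antagonist read after challenge with 54-4 at 4 uM final (EC80).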
PINK1 modulator – changes PINK1 expression; Potency, µM (titrated, usually from 76.6 µM), without a hit: at the highest dose activation (PINK1 increase), most hits filed as activators; PINK1 immunofluorescence, high-content cytometry, 24 h; actives 0.2% (n = 410,000); active = well fitted activation curve with a large enough effect; inconclusive = small, poorly fitted or top-dose-only effect; inactive = flat fitted curve, though single readings scatter; cell line not stated here;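 also: potency is read from the fitted curve at half-maximal effect; % of control where 0% means no effect; nearly all actives have a fitted effect of over 65% in size; a mitochondrial uncoupler was the plate control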
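Cells are seeded, rested 12 hours, then given compound at five concentrations or DMSO for 24 hours. After fixation, blocking and antibody staining, PINK1 amount and mitochondrial localization are scored; CCCP serves as control.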
D2 potentiator – human D2 receptor positive allosteric modulation; P14416; DiscoveRx D2 beta-arrestin cells, luminescence, 90 min; 100% = 57 uM dopamine signal; potentiation, % (test concentration not listed); actives 0.23% (n = 360,000); active = potentiation of 50% or more; inconclusive = 30% to 50%; inactive = 30% or less;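 also: compound concentration not given in the record; tested on top of an EC20 dose of dopamine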
Target sequence (P14416 whole entry, looked up): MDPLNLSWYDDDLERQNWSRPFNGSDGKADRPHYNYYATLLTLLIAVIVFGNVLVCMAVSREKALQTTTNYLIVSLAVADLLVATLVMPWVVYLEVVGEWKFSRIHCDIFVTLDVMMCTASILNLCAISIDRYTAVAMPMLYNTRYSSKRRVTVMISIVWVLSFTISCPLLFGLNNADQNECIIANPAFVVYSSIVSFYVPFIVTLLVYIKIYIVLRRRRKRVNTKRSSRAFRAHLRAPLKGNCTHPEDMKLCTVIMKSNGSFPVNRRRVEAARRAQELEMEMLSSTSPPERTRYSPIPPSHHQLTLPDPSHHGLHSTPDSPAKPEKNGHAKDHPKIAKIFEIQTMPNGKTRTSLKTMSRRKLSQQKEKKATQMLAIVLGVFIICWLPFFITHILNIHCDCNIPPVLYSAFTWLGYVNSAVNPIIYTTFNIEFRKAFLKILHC
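PathHunter beta-arrestin assay in DiscoveRx D2 cells. Compounds were added with an EC20 of dopamine (50 nM final) for 90 min at 37 deg C. Luminescence was read 1 h after detection reagent, with 57 uM dopamine as the EC100 control.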
D2 ag – human D2 receptor agonism in beta-arrestin assay; P14416; DiscoveRx PathHunter D2 beta-arrestin, luminescence, 90 min; 100% = 57 uM dopamine signal; activation, % (concentration not given with the values); actives 0.084% (n = 360,000); AID 624465; in the data active = activation above about 40%; inconclusive = about 15% to 40%; inactive = below about 15%; also: compound concentration not given in the record; the text of the record calls up to 30% inactive
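DiscoveRx PathHunter D2 beta-arrestin cells (2,100/well) attached overnight, then compound-stimulated 90 min at 37 C in HBSS/10 mM HEPES/0.1% Tween-20 buffer; beta-galactosidase complementation read by luminescence after 1 h at ambient temperature. Dopamine 57 uM final (EC100) as control.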
TRPML1 ag – agonists of human TRPML1 channel. Q9GZU1. TRPML1-expressing cells, Ca2+ dye fluorescence, FDSS; host cell line not named in the record; reference of the full effect not given here. activation, % (test concentration not listed). actives 0.12% (n = 410,000); in the data active = activation above about 50%; inconclusive = about 30% to 50%; inactive = below about 30%; also: 0% is about no effect; the text of the record puts the active cut at 80%
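Tet-induced TRPML1-DL cells, 1,500 per well, cultured overnight, were loaded with a no-wash Ca2+ dye for 45–90 min. Calcium fluorescence was recorded on the FDSS for 110 s after compound addition, before the EC80 agonist (4 uM 54-4) was added.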
Six1-Eya2 blk – blocks human Six1 binding to Eya2; Q15475+O00167; AlphaScreen GST-Six1/His-Eya2 binding, biochemical; hits give low values; control for the full effect not named in the record; activity change, % (test concentration not listed); actives 0.56% (n = 360,000); AID 651725; in the data active = activity change below about -65%; inconclusive = about -30% to -65%; inactive = above about -30%; also: % is scaled to controls: 0 for no effect and ±100 for the full control effect; compound concentration not given in the record
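AlphaScreen luminescence read after one hour at 37 °C in darkness. Pin-transferred compounds met GST-Six1 and His-Eya2 protein (5X stock 250 nM/500 nM) plus glutathione donor and Ni-chelate acceptor beads (5X, 50 ug/mL).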
* hit, by the source's call; ? = inconclusive; / = no result given; [ ] = dose if it differs, or a comment.

SMILES	TRPML1 inh	PINK1 modulator	D2 potentiator	D2 ag	TRPML1 ag	Six1-Eya2 blk
Cc1ccc(-n2nnnc2SC(C)C(=O)Nc2ccccc2-c2ccccc2)cc1 (configuration not stated)	-2.8	-0.5%	-8.4	-0.9	1.8	11.7
Cc1cc(NC(=O)Cc2ccccc2)ccc1NC(=O)c1cccs1	2.5	-1.3%	0.9	-0.3	-0.6	11.4
Cc1cc(Cl)ccc1-c1nc(NC(C)C)nc2ccsc12	/	8.1%	-13.6	-5.4	-0.6	35.3
O=C(N/N=C/c1sc(N2CCOCC2)nc1-c1ccccc1)c1cccc(S(=O)(=O)N2CCOCC2)c1	46.5	?	-0.7	1.2	-0.2	-29.4
O=C(CC1C(=O)NCCN1C(=O)Nc1ccccc1)Nc1ccc2c(c1)OCCO2 (configuration not stated)	-3.2	-2.8%[38.3 µM]	2.4	-0.6	-0.3	-0.6
Cc1ccc(N(C(=O)CCl)C(C(=O)NC2CCCCC2)c2cccnc2)cc1C (configuration not stated)	14.9	-0.8%	-14.2	-3.2	0.3	5.6
Cc1c(C(=O)NCCC2=CCCCC2)sc2ncnc(N3CCCCC3C)c12 (configuration not stated)	7.9	0.1%	-7.2	-0.8	0.5	-0.2
CCN(CC(=O)Nc1c(F)cccc1F)C(=O)Cc1cccs1	-13.4	1.9%	-2.7	-4.9	0.3	6.4
CC(=O)NCCc1ccc(S(=O)(=O)NCc2ccc3c(c2)OCO3)cc1	29.1	-4.5%[38.3 µM]	4.5	0.3	0.2	3.7
COc1cc2c(cc1OC)C(C)N(C(=O)Nc1ccc(F)cc1)CC2 (configuration not stated)	31.6	5.3%	-7.0	-1.6	2.0	1.4
N#Cc1cccc2cnccc12	0.4	-1.7%	-1.3	-5.1	0.5	-6.1
CC(c1ccccc1)N1C(=O)c2ccc(C(=O)NCc3ccco3)cc2C1=O (configuration not stated)	24.9	0.2%	-10.6	-1.7	2.9	-22.0
COc1ccc(NC(=O)Cn2c(=O)n(-c3cccc(C(F)(F)F)c3)c(=O)c3sccc32)cc1	-2.2	3.5%	/	/	-0.4	/
COc1ccc(C)cc1NC(=O)C(=O)NCc1ccncc1	-6.6	0.2%[38.3 µM]	-6.3	-2.1	3.5	-2.1
O=C(COC(=O)c1cc(S(=O)(=O)N2CCCC2)ccc1O)Nc1ccc(F)cc1F	4.3	0.9%	-6.5	-2.1	1.0	4.4
COc1ccccc1NS(=O)(=O)c1cc2c(cc1Cl)NC(=O)CO2	6.1	0.6%	/	/	-0.3	/
CN(C)c1ccc(C(=O)N(Cc2ccccc2)Cc2ccccc2)cc1	31.3	2.2%	-3.2	-6.8	1.5	-9.8
COc1ccccc1N1CC(C(=O)Nc2nnc(SCC(=O)NC(C)C)s2)CC1=O (configuration not stated)	4.9	1.0%	1.2	-0.8	-0.7	1.4
O=C(CNC(=O)c1ccccc1F)OCc1cc(=O)n2nc(C3CC3)sc2n1	-16.5	-0.2%	/	/	-0.1	/
COc1ccc(CN(N=O)C2CC(=O)N(c3ccc(OC)cc3)C2=O)cc1 (configuration not stated)	8.8	-0.8%	-3.5	-4.6	-0.7	-10.3

Compound profiles, as listed above. Order of values: TRPML1 inh | PINK1 modulator | D2 potentiator | D2 ag | TRPML1 ag | Six1-Eya2 blk
COc1ccc(NC(=O)Cn2c(=O)n(-c3cccc(C(F)(F)F)c3)c(=O)c3sccc32)cc1 is entered as -2.2 | 3.5% | / | / | -0.4 | /
COc1ccccc1NS(=O)(=O)c1cc2c(cc1Cl)NC(=O)CO2 is entered as 6.1 | 0.6% | / | / | -0.3 | /
CC(c1ccccc1)N1C(=O)c2ccc(C(=O)NCc3ccco3)cc2C1=O (configuration not stated) is entered as 24.9 | 0.2% | -10.6 | -1.7 | 2.9 | -22.0
COc1ccccc1N1CC(C(=O)Nc2nnc(SCC(=O)NC(C)C)s2)CC1=O (configuration not stated) is entered as 4.9 | 1.0% | 1.2 | -0.8 | -0.7 | 1.4

More entries
SMILES	TRPML1 inh	PINK1 modulator	D2 potentiator	D2 ag	TRPML1 ag	Six1-Eya2 blk
NS(=O)(=O)c1ccc(NC(=O)N[C@@H](Cc2ccccc2)C(=O)O)cc1	-28.3	1.6%	-4.0	-2.8	0.4	4.9
CC(=O)Nc1ccc(S(=O)(=O)Nc2nc3ccccc3nc2Nc2ccc(O)cc2)cc1	36.1	0.4%	-1.0	-1.1	-0.6	7.3
O=S1(=O)CC(N2CC=CC2)CN1Cc1cn(Cc2cccc(C(F)(F)F)c2)nn1 (configuration not stated)	/	-0.5%	/	/	0.0	4.6
O=C(Nc1ccc(Cl)c(Cl)c1)Nc1ccon1	-8.8	?	-6.9	0.8	0.9	2.3
c1ccc2nc(N3CCN(Cc4ccc5c(c4)OCO5)CC3)cnc2c1	-7.1	-0.3%	-26.8	-3.5	0.5	11.3
NS(=O)(=O)c1cc(C(=O)OCC(=O)c2ccccc2)c(Cl)cc1Cl	11.7	-0.7%	-4.0	-13.9	-0.1	6.7
COc1ccc(C(=O)NCc2ccc(C)cc2)cc1S(=O)(=O)N1CCCC1	39.6	-0.7%	-2.8	-1.3	0.4	-0.6
Cc1cccn2c(=O)cc(COc3ccc(NC(=O)c4cccc(F)c4)cc3)nc12	12.1	0.4%	/	/	0.3	/
Cc1cccc(NC(=O)CSc2nc3c([nH]c4ccccc43)c(=O)n2-c2ccc(F)cc2)c1C	59.7	-0.4%	/	/	2.8	/
Cc1c(Cl)cccc1NC(=O)CC(NCCN1CCOCC1)C(=O)O (configuration not stated)	-12.5	-1.2%	-8.7	0.5	0.1	8.7

Structural class, those above containing a CF3 group (2)
SMILES	TRPML1 inh	PINK1 modulator	D2 potentiator	D2 ag	TRPML1 ag	Six1-Eya2 blk
COc1ccc(NC(=O)Cn2c(=O)n(-c3cccc(C(F)(F)F)c3)c(=O)c3sccc32)cc1	-2.2	3.5%	/	/	-0.4	/
O=S1(=O)CC(N2CC=CC2)CN1Cc1cn(Cc2cccc(C(F)(F)F)c2)nn1 (configuration not stated)	/	-0.5%	/	/	0.0	4.6

(cont.)
SMILES	TRPML1 inh	PINK1 modulator	D2 potentiator	D2 ag	TRPML1 ag	Six1-Eya2 blk
COc1ccc(C(C)(O)c2nc(-c3csc4ccccc34)cs2)cc1 (configuration not stated)	-0.7	11.3%	-5.5	-1.0	-0.4	1.9
O=C(O)C1CCN(Cc2ccccn2)CC1	27.3	-1.9%	-11.6	-1.8	0.6	1.9
CCNC(=O)C1(C)CCCN(C(=O)c2ccc3sccc3c2)C1 (configuration not stated)	/	-0.3%	-7.4	-5.8	-0.5	-2.4
NS(=O)(=O)c1ccc(CCNC(=O)Cc2ccccc2[N+](=O)[O-])cc1	63.5	1.0%	-4.5	-2.8	-0.1	-3.2
CC1CCN(S(=O)(=O)c2ccc(NC(=O)Cc3ccc(S(=O)(=O)N4CCOCC4)s3)cc2)CC1	0.6	1.7%	11.9	0.9	0.6	-12.2
Nc1nc(-c2ccc(Cl)cc2)c(S(=O)(=O)c2ccccc2)s1	-10.4	3.2%	-2.5	-4.2	2.0	1.3
Cc1ccccc1C(=O)Nc1ccnn1C1CCN(Cc2ccc(CO)o2)CC1	-0.9	0.0%	-8.7	0.4	-0.1	-0.5
COc1ccc(/C=C/c2c([N+](=O)[O-])c(=O)n(C)c(=O)n2C)cc1OC	-6.5	/	-3.5	-1.4	-0.4	19.6
O=C(Nc1cccc(C(F)(F)F)c1)c1csc(COCCO)n1	/	-0.7%	-8.4	-3.0	-0.5	40.1
CC(C)(C)c1ccc(C2C(C#N)=C(N)Oc3n[nH]c(-c4cccnc4)c32)cc1 (configuration not stated)	5.1	-0.4%	-2.5	-5.1	-0.1	11.4
CC(=O)NC1=NN(C(C)=O)C(C)(CC(=O)OC(C)(C)C)S1 (configuration not stated)	-5.2	0.4%	0.4	-2.2	-0.4	-3.2
CC(C)COc1ccc(C(=O)Nc2ccccc2[N+](=O)[O-])cc1	-13.3	2.9%	29.1	-1.2	-0.3	?
O=C(Nc1ccncc1)c1ccc(Cl)c(S(=O)(=O)N2CCCC2)c1	-18.4	0.5%	0.2	2.6	0.6	6.1
COc1ccc(CNCc2cccc(OC)c2OC)cc1Br	2.9	0.2%	-19.8	2.9	0.0	-5.6
CC1=C(C(=O)OCC(C)C)C(c2ccsc2)NC(=O)N1 (configuration not stated)	12.6	-3.5%	-9.4	0.3	0.4	8.7
CCc1ccc(NC(=O)c2nn(-c3ccc(C)cc3)c(=O)n(C)c2=O)cc1	-4.1	0.2%	/	/	-0.6	/
O=C(/C=C/c1ccccc1)N/C(=C/c1ccccc1)C(=O)Nc1ccccc1O	20.5	1.5%	-7.1	-4.2	1.5	-9.4
CC(=O)C1=C(O)C(=O)N(Cc2ccco2)C1c1ccccc1F (configuration not stated)	41.7	-1.5%	-0.2	2.2	2.8	5.7
COc1ccc(S(=O)(=O)N2CCN(C(=O)NC3CCCCC3)CC2)cc1OC	-9.9	-3.5%[38.3 µM]	-6.7	-2.7	-0.2	0.9
COC(=O)c1ccccc1NC(=O)c1cc(-c2ccc(C)cc2)on1	-5.5	0.4%[38.3 µM]	-0.3	1.7	-0.4	0.3
CC(=O)Nc1ccc(/C=N/NC(=O)CNS(=O)(=O)c2ccccc2)cc1	-7.9	-1.9%	-7.0	-1.0	1.9	-7.9
COc1cccc(C(=O)N2CCC2(C)C(=O)O)c1 (configuration not stated)	/	0.5%	-4.6	-3.4	-0.4	-2.9
CC(=O)c1ccc(N2CCN(c3ncnc4c3cnn4C)CC2)cc1	-24.2	3.7%	/	/	-1.6	/
NC(=O)c1ccccc1NS(=O)(=O)Cc1ccc(Cl)cc1	18.6	?	-13.8	-0.3	0.7	14.3
CC(C)CCSc1nc2[nH]ncc2c(=O)[nH]1	9.9	0.4%	-1.7	-0.5	1.3	0.2
C=C(C)COc1ccc2c(C)c(CC(=O)N3C[C@H]4C[C@@H](C3)c3cccc(=O)n3C4)c(=O)oc2c1	/	-0.2%	-18.2	-5.9	/	-5.0
O=C(NCCS(=O)(=O)N1CCN(c2ccc(F)cc2)CC1)C12CC3CC(CC(C3)C1)C2	-9.1	2.5%	-8.3	-0.9	0.4	3.9
CCOc1ccc(CN2C(=O)c3ccccc3C2C(=O)NCCc2ccc(OC)c(OC)c2)cc1 (configuration not stated)	-6.5	2.1%	/	/	-0.4	/
C/C(=N\NC(=O)c1cccc([N+](=O)[O-])c1)c1cccs1	6.9	-0.3%	-3.1	-0.3	1.0	-6.2
CCOC(=O)N1CCc2c(sc(NC(=O)CCS(=O)(=O)c3ccccc3)c2C(N)=O)C1	5.9	-0.3%	-7.5	-1.1	-0.5	-4.1
COc1cc(OC)cc(C(=O)N[C@H](C(=O)NCCc2ccc(S(N)(=O)=O)cc2)C(C)C)c1	-8.8	0.2%	0.1	-3.5	1.4	6.2
CS(=O)(=O)N(CC(=O)Nc1ccc(F)cc1)C1CCCCC1	-6.7	-0.4%	-2.6	-2.3	-0.5	0.1
CCOc1ccc(N(CC)S(=O)(=O)N2CCCC(C(=O)Nc3cc(Cl)ccc3C)C2)cc1 (configuration not stated)	23.8	-0.2%	/	/	0.1	/
COc1ccc(C(C#N)N2N=C(c3ccccc3)CC2c2ccccc2)cc1OC (configuration not stated)	-3.3	1.6%	-9.9	-2.1	0.4	6.5
Cc1nn(CC(=O)NCCc2cccs2)c(=O)c2cc3ccccc3n12	-0.5	0.4%	-29.3	-3.6	0.9	-0.8
